# Mtb H37Rv: M. tuberculosis H37Rv growth inhibitors, H37Rv strain (AID 1626); M. tuberculosis H37Rv growth inhibition; higher % means a stronger effect; one-dose inhibition, % at 10 µM; IC50 in µM for titrated hits; hit rate 0.95% among 220,000;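 active means confirmed in a dose series; inconclusive means inhibition above 80% but not taken into the dose series; inactive means below 80% or under 30% at every dose of the series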;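 further: bacteria incubated seven days before Alamar blue readout; 0% = bacteria only wells and 100% = bacteria with antibiotic wells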
# Arbovirus inh: antivirals against arbovirus infection, primary screen, cell-based, full library, 10K replicate subset; inhibition, % at 10 µM; hit rate 0.37% among 200,000; arbovirus infection cell-based antiviral screen; AID 1251, 2008;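 active means inhibition from about 30%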;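 further: bluetongue infection of BSR cells; cell survival read as ATP light after 72 h; 0% = infected wells without compound and 100% = uninfected wells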
# RecA splice inh: Mtb RecA intein splicing inhibitors, primary screen, biochemical, fluorescence, HTS. hit rate 0.75% among 290,000. AID 2221, 2009. inhibition, %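 (about 9 µM by stock and volumes)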. cell-free RecA intein splicing. Protein RecA (Mycobacterium tuberculosis (strain ATCC 25618 / H37Rv)), P9WHJ3; in the data active means inhibition above about 30%; inconclusive means no clear call, values can overlap the other calls;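 further: 0% = vehicle wells and 100% = reference inhibitor control wells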
# Target sequence (P9WHJ3 whole entry, looked up, canonical isoform): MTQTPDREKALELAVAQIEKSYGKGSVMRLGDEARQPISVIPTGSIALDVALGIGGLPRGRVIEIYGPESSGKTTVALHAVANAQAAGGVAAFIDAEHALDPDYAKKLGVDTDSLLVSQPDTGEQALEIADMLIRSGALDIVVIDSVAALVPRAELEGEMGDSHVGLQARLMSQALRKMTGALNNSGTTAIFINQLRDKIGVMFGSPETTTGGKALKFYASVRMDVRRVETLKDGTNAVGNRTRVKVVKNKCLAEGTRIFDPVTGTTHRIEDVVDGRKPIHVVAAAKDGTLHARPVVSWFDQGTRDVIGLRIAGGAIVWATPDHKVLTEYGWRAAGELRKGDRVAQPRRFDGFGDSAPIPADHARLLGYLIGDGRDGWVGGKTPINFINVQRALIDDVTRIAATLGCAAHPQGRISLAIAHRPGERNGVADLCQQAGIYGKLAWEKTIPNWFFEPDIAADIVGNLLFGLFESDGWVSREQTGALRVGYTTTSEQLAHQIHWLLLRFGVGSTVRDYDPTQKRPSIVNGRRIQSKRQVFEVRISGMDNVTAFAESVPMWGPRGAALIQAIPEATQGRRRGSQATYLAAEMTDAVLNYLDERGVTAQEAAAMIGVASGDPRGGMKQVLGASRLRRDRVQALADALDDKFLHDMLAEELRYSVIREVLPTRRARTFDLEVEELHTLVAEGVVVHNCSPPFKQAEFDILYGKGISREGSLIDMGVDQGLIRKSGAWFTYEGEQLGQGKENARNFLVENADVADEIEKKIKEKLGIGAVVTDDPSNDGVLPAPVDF
# YopH PTP inh: YopH tyrosine phosphatase inhibitors, primary screen, biochemical, fluorescence Ex485/Em525 | hit rate 0.16% among 140,000 | inhibition, %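 (about 10 µM by stock and volumes)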 | YopH tyrosine phosphatase [Yersinia enterocolitica];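 active means inhibition of 50% or more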;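 further: controls were vehicle for no effect and minimum signal wells for full effect; inactives centre near -20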
# Mtb bLac sens: beta-lactam sensitization of Mtb H37Rv, H37Rv | inhibition, % at 25 µM | M. tuberculosis H37Rv growth with meropenem, percent inhibition; hits of this screen are not shown here | hit rate 0.27% among 330,000;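 active means about 74% or more and at least 40 points above the plate without the antibiotic, then above 30% in a dose series; inconclusive means first-round hits that could not be retested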;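 further: growth measured after seven days incubation then overnight dye step; 0% = bacteria only wells and 100% = bacteria with antibiotic; twin plates without the antibiotic show which effects depend on it; some results filed as inactive read as strong as hits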
# Arbovirus inh repeat: recorded beside Arbovirus inh, whose call it bears; inhibition, %; measured here: 10K subset replicate screen; many hits read low in the repeat;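 first of two repeat runs on a subset; 0% = infected and 100% = uninfected wells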
# * hit, by the source's call; i = inactive; ? = inconclusive; / = no result given.
SMILES,Mtb H37Rv,Arbovirus inh,RecA splice inh,YopH PTP inh,Mtb bLac sens,others
CCc1ccccc1NC(=O)CN(C)C(=O)CSc1nc2cc(Cl)ccc2s1,0%,0,-0.5,-22,-4,
O=C(NC1CCS(=O)(=O)C1)c1cccc(S(=O)(=O)N2CCOCC2)c1 (stereo unspecified),-5%,-3,/,-18,-3,
Nc1ccc(Br)cc1C(NCC(=O)O)c1ccccc1 (stereo unspecified),-4%,4,-1.2,/,7,
CCOc1ccc(C(=O)C(c2ccccc2)N2CCOCC2)cc1 (stereo unspecified),-8%,4,2.9,-44,-10,
COc1ccc2[nH]cc(CCNCc3cccnc3)c2c1,/,/,-2.3,/,2,
CC(C)c1ccccc1NC(=O)COC(=O)c1ccc(Cl)c(S(=O)(=O)N2CCCCCC2)c1,1%,-1,0.8,-43,-8,
CC(SCC(=O)Nc1ccccc1)c1nc2ccccc2c(=O)[nH]1 (stereo unspecified),/,/,2.9,/,8,
CC(C)(C)C(=O)O/N=C(\N)c1ccc(-c2csnn2)cc1,-5%,/,2.4,/,15,
Cc1nc2nc(-c3ccco3)nn2c(C)c1Cl,-7%,-2,-2.9,2,-9,
CC(C)=C(C#N)c1nc2ccccc2s1,-1%,5,0.3,12,7,
C=CCNc1nc(NCc2ccccc2)c(C#N)c2c1CN(C)CC2,6%,-20,-101,-4,3,
O=C(COC(=O)C1CCC(=O)N1)Nc1ccc(Oc2ccccc2)cc1 (stereo unspecified),50%,0,4.0,/,-14,
COc1ccc(S(=O)(=O)NCCCN2CCOCC2)cc1F,/,/,0.2,/,5,
O=C(Cc1nnc(NC(=O)Nc2ccccc2)s1)Nc1ccccc1,-4%,/,-0.8,/,2,
COc1cccc(/C=C2\N=C(c3cncc(Br)c3)OC2=O)c1,0%,4,14,-13,37,
Cc1ccccc1CN1C2=NCCCN2c2ccccc21,-3%,11,0.2,-22,4,
COc1cc(C)nc(N2CCCC(C(=O)Nc3cc(Cl)ccc3OC)C2)n1 (stereo unspecified),0%,12,0.6,-7,-2,
Nc1nnc(CCOc2ccccc2Cl)s1,0%,1,2.7,-19,4,
NC(=O)c1c(NC(=O)C(=O)N2CCOCC2)sc2c1CCCC2,/,/,-3.0,/,-10,
Cc1cc(C(C)(C)C)ccc1OCCOCCN1CCCC1,0%,-24,-0.2,-8,-5,
COc1ccc(NC(=O)/C=C/c2ccccc2[N+](=O)[O-])c(OC)c1,7%,-7,-0.1,-18,1,
O=C(CS(=O)(=O)c1ccccc1)Nc1nnc(C(F)(F)F)s1,/,/,1.3,/,88,
Cc1nn(Cc2ccc(Cl)cc2Cl)c(Cl)c1/C=N/NC(=O)CNc1cccc(C(F)(F)F)c1,3%,-19,-1.8,-9,46,
CC(=O)NCCC(=O)Nc1ncc(S(=O)(=O)c2ccc([N+](=O)[O-])cc2)s1,/,/,-2.7,/,-10,
COc1ccc(NC(=O)CSc2c(C)nn(-c3nnc(C)c(=O)[nH]3)c2C)cc1,0%,10,0.7,-51,37,
CCOC(=O)CC1C(=O)NCCN1C(=O)c1cc2c(=O)n3cccc(C)c3nc2s1 (stereo unspecified),/,4,-40,-35,-10,Arbovirus inh repeat=-3
C=CCNC(=O)/C=C/c1ccc(C(C)C)cc1,16%,-3,2.3,-24,3,
CC1(C)CC(=O)/C(=C(\O)c2ccccc2)C(=NCCc2ccccc2)C1,-3%,0,0.8,2,-4,
O=C(N/C(=C/c1ccco1)C(=O)N1CCCCCC1)c1cccs1,-3%,-3,1.6,-31,-19,
CCN(CC)C(=O)c1cccc(-c2ccc(OC)cc2)c1,-2%,3,-3.4,-5,-2,
CC(C)NC(=O)c1onc(CSc2ccncc2)c1C(=O)NC(C)C,-5%,/,-1.2,/,0,
CCN(c1ccccc1)S(=O)(=O)c1ccc(F)cc1C,4%,2,/,7,-3,
Cc1nn(C(C)(C)C)c(C)c1/C=N/OC(=O)Nc1ccc(Cl)cc1,4%,/,2.3,/,60,
COc1cccc(N2CCN(C(c3ccccn3)c3nnnn3C(C)(C)C)CC2)c1 (stereo unspecified),-1%,-5,/,-6,-9,
CCc1nc(SCc2ccccn2)[nH]c(=O)c1C,-7%,-6,0.3,/,-5,
COc1cnn(-c2ccccc2)c(=O)c1SCc1ccc(Cl)cc1Cl,1%,-11,10,-37,-8,
CCOc1cc(C(C(=O)NCC2CCCO2)N(C(=O)Cn2nnc3ccccc32)c2ccc(OC)c(OC)c2)ccc1O (stereo unspecified),/,/,1.4,/,-7,
O=C(c1cc(-c2cccs2)nc2ccccc12)N1CCN(c2ccccc2O)CC1,24%,-23,19,/,96,
COc1ccc(Cl)cc1NC(=O)CN1CCC(n2nnc3ccccc32)CC1,-2%,6,3.5,35,-1,
Cc1ccc(C2N(c3ccc(Cl)cc3)C(=O)N3CCCN23)cc1 (stereo unspecified),-10%,/,4.0,/,-4,
CCN(C(=O)CSc1nnnn1-c1ccccc1OC)C1CCS(=O)(=O)C1 (stereo unspecified),/,/,-4.5,/,-5,
CS(=O)(=O)N(CC(=O)N1CCCCCC1)Cc1ccc(Cl)cc1,-2%,4,-0.7,-28,-6,
CCC(C)(C(=O)NC1CCCCC1)N(Cc1ccco1)C(=O)Cc1cccs1 (stereo unspecified),-2%,-9,2.9,8,-3,
Cn1c(SCC(=O)N2c3ccccc3Sc3ccccc32)nnc1-c1ccco1,6%,-2,5.4,-107,5,
CCN(c1ccc(C)c(C)c1)S(=O)(=O)c1c(C)[nH]c(=O)[nH]c1=O,0%,2,0.3,-36,-3,
CCOC(=O)N1CCN(C(=O)c2ccc(N(Cc3ccccc3)S(C)(=O)=O)cc2)CC1,-10%,2,-0.5,0,-10,
Cn1c(C(C(=O)NCC2CCCO2)N(CCc2ccccc2)C(=O)Cn2nnc3ccccc32)nc2ccccc21 (stereo unspecified),0%,2,1.2,-7,-2,
Cc1cccn2c(=O)c3cc(C(=O)NCC4CCCO4)c(=N)n(C4CCCC4)c3nc12 (stereo unspecified),/,/,i,/,3,
CNc1c(N)n(Cc2ccccc2)c(=O)[nH]c1=O,-4%,-5,-12,-9,-4,
CC(C)NC(=O)NC(=O)CSc1ncc(C(F)(F)F)cc1Cl,-4%,2,1.2,-41,-3,
O=C(c1ccccc1[N+](=O)[O-])N(CCc1ccccc1)Cc1ccccc1,/,/,6.2,/,-1,
Clc1cccc(-c2nc3nc4ccccc4nc3n2Cc2ccccc2)c1,-8%,1,-1.4,-17,6,
CC(=O)Nc1cccc(N=NN2CCCCC2)c1,1%,-5,-4.7,/,-2,
C=CCOc1c(Br)cc(CNc2ccc(NC(=O)CCC)cc2)cc1OCC,-7%,-11,5.9,-27,-4,
CC(C)(C)c1ccc(S(=O)(=O)N2CCC(O)(c3ccc(Cl)cc3)CC2)cc1,-4%,/,13,/,-11,
S=C(Nc1ccccc1Cl)N1CCCCC1,-1%,-8,-0.9,-17,3,
N#Cc1ccc(Oc2cc(C(F)(F)F)nc(-c3ccccn3)n2)cc1,8%,6,0.8,19,8,
CCC(C)(O)c1[nH]c2ccc(C(F)(F)F)cc2c1C (stereo unspecified),/,/,1.5,/,97,
CSc1cccc(NC(=S)N(Cc2ccccc2)Cc2cccnc2)c1,4%,3,2.1,/,2,
O=C(c1ccccc1)N1CN2CN(C(=O)c3ccccc3)CC([N+](=O)[O-])(C2)C1,-6%,-6,1.3,-21,-3,

# The list continues:
SMILES,Mtb H37Rv,Arbovirus inh,RecA splice inh,YopH PTP inh,Mtb bLac sens,others
O=C(NNc1nc(-c2ccccc2)cs1)c1cccs1,?,/,4.7,/,94,
O=C(O)Cc1sc(N/N=C\c2ccccc2)nc1-c1ccccc1,6%,-5,-6.4,-18,53,
CCOC(=O)CSc1nc2c(cnn2-c2ccc(C)cc2)c(=O)[nH]1,14%,-2,-1.0,-35,-5,
O=C(Nc1ccc2oc(-c3ccc4ccccc4c3)nc2c1)c1cccs1,6%,-24,2.7,-15,0,
CC1=CC(C)C2C(=O)N(O)C(=O)C2C1 (stereo unspecified),-5%,10,-2.1,-29,0,
Cc1ccc(Cn2ncn3c(cc4ccccc43)c2=O)cc1,-4%,-7,16,-35,4,
O=C(Nc1ccnn1C1CCN(CCCc2ccccc2)CC1)c1ccccc1,/,/,1.2,/,-13,
CCCn1c(=O)c2c(nc(Br)n2CCC)n(C)c1=O,-4%,5,3.1,-46,-10,
C=CCSc1nnc(-c2cc(Br)ccc2N)c(=O)[nH]1,2%,4,-0.4,/,-6,Arbovirus inh repeat=0
CCCC12CN3CCN(CC(C3)/C1=N\NC(=O)c1ccccc1N)C2,3%,-1,-1.2,-17,-3,
COC(=O)CCC(=O)NC(=S)Nc1ccc(S(=O)(=O)N2CCCC2)cc1,-6%,1,-0.8,/,5,
COc1cc(CCCN2C(N)=NC[C@@H]2Cc2ccccc2)cc(OC)c1OC,-15%,/,-1.2,/,-10,
O=C(N/N=C/c1ccccc1)c1cccc2ccccc12,/,/,1.7,/,-1,
CCCc1ccc(C(=O)NNc2ccc(F)cc2)cc1,71%,/,1.6,/,96,
CCOC(=O)C(NC(=O)C1CCCN1C(=O)OCc1ccccc1)C(=O)OCC (stereo unspecified),-1%,1,-1.0,-33,7,

# Molecules from the list above containing an aryl thioether with sulfur outside any ring, in the order listed:
SMILES,Mtb H37Rv,Arbovirus inh,RecA splice inh,YopH PTP inh,Mtb bLac sens,others
CCc1ccccc1NC(=O)CN(C)C(=O)CSc1nc2cc(Cl)ccc2s1,0%,0,-0.5,-22,-4,
COc1ccc(NC(=O)CSc2c(C)nn(-c3nnc(C)c(=O)[nH]3)c2C)cc1,0%,10,0.7,-51,37,
CC(C)NC(=O)c1onc(CSc2ccncc2)c1C(=O)NC(C)C,-5%,/,-1.2,/,0,
CCc1nc(SCc2ccccn2)[nH]c(=O)c1C,-7%,-6,0.3,/,-5,
COc1cnn(-c2ccccc2)c(=O)c1SCc1ccc(Cl)cc1Cl,1%,-11,10,-37,-8,
CCN(C(=O)CSc1nnnn1-c1ccccc1OC)C1CCS(=O)(=O)C1 (stereo unspecified),/,/,-4.5,/,-5,
Cn1c(SCC(=O)N2c3ccccc3Sc3ccccc32)nnc1-c1ccco1,6%,-2,5.4,-107,5,
CC(C)NC(=O)NC(=O)CSc1ncc(C(F)(F)F)cc1Cl,-4%,2,1.2,-41,-3,
CSc1cccc(NC(=S)N(Cc2ccccc2)Cc2cccnc2)c1,4%,3,2.1,/,2,
CCOC(=O)CSc1nc2c(cnn2-c2ccc(C)cc2)c(=O)[nH]1,14%,-2,-1.0,-35,-5,
C=CCSc1nnc(-c2cc(Br)ccc2N)c(=O)[nH]1,2%,4,-0.4,/,-6,Arbovirus inh repeat=0

# The list continues.
SMILES,Mtb H37Rv,Arbovirus inh,RecA splice inh,YopH PTP inh,Mtb bLac sens,others
Cc1ccc2c(c1)sc1nc(=O)n(-c3cccc(Cl)c3)c(=O)n12,-8%,5,-0.6,-34,-1,
COc1ccc([C@@H]2[C@@H]3C(=O)N(C(C)(C)C)C(=O)[C@@H]3[C@]3(Cc4ccccc4)C(=O)N(c4ccc(Br)cc4)C(=O)N23)cc1,/,/,1.2,/,18,
CCOC(=O)c1csc(NC(=O)c2ccc(S(=O)(=O)N3CCCC3)cc2)n1,3%,1,-1.2,-33,6,
Cc1ccc(Nc2nc3nonc3[nH]c2=O)cc1Cl,-3%,-16,-0.8,/,-15,
Clc1cnc(N/N=C/c2ccncc2)c(Cl)c1,/,/,-2.5,/,6,
CC(NC(=O)CCSc1nc(-c2ccco2)cc(C(F)(F)F)n1)c1ccccc1 (stereo unspecified),-5%,-25,3.4,-5,5,
Cc1c(C(=O)c2ccccc2)oc2ccc3ccccc3c12,1%,/,1.2,/,/,
CCOC(=O)c1csc(NC(=O)C(C)(C)C)n1,-1%,6,-0.1,-48,-5,Arbovirus inh repeat=2
CNc1[nH]ncc1[N+](=O)[O-],-2%,17,0.6,/,2,
O=C(COC(=O)CCNS(=O)(=O)c1ccccc1F)Nc1nnc(-c2ccccc2)o1,/,/,-1.2,/,3,
N#CCCN1CCCN(CCC#N)CCN(CCC#N)CCCN(CCC#N)CC1,/,/,2.1,/,0,

# Source: PubChem BioAssay (several laboratories)

# This is a subset, so the mix of outcomes need not match the whole.
